TRPML1 agonist: agonists of human TRPML1 channel; 410,000 tested, 0.12% active; activation, % (test concentration not listed); TRPML1-expressing cells, Ca2+ dye fluorescence, FDSS; host cell line not named in the record; reference of the full effect not given here; AID 624414; Q9GZU1; in the data active = activation above about 50%; inconclusive = about 30% to 50%; inactive = below about 30%; further: 0% is about no effect; the text of the record puts the active cut at 80%
Target sequence (Q9GZU1 whole entry, looked up): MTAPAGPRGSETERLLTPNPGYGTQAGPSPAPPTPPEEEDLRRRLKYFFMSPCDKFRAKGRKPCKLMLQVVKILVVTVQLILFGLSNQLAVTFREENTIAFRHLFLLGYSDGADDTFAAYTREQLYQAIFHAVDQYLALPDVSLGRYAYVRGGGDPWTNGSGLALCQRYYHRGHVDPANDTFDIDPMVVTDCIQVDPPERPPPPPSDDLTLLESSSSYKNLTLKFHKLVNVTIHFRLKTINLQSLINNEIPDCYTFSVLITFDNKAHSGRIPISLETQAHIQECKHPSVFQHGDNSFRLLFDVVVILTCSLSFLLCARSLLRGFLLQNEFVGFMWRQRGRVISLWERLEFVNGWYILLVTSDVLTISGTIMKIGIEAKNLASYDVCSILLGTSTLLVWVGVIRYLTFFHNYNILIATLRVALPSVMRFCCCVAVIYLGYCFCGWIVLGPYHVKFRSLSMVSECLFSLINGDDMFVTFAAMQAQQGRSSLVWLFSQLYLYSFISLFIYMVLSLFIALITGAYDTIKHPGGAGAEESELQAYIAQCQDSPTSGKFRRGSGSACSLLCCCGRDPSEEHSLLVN
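Cells: TRPML1-DL, 1X Tet inducer, ~16 h at 37 degrees C/5% CO2. Dye: ABD Ca8 no-wash + quencher, 45-90 min RT. Read: 10 s baseline, compound add, 110 s agonist phase; 54-4 EC80 (4uM final), 110 s antagonist phase.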
TRPML1 inh: human mucolipin-1 channel inhibition. Q9GZU1. TRPML1-inducible cells, Ca2+ dye fluorescence, FDSS; stronger effect = lower value; inhibition of EC80 agonist-evoked calcium signal. activity change, negative = inhibition, % (no concentration beside the values). 390,000 tested, 0.02% active. AID 624415; in the data active means activity change below about -50%; inconclusive means about -30% to -50%; inactive means above about -30%;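 further: stimulus is agonist 54-4 at its EC80 concentration; on the % scale 0 is the no-effect control and ±100 the full control effect; compound concentration not given in the record; the text of the record puts the active cut at -80%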
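Calcium fluorescence in TRPML1-DL cells induced overnight with Tet: a 110 s read after compound pin addition, then a 110 s antagonist read after challenge with 54-4 at 4 uM final (EC80).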
Sfp inh: blocks B. subtilis Sfp PPTase activity; Q9F4F7; Biochemical Sfp PPTase activity, qHTS; Potency, µM, inactives show max response, negative = inhibition, actives largely listed as inhibitors; 310,000 tested, 3.5% active; AID 1490; active means well fitted inhibition curve with a large enough effect; inconclusive means small, poorly fitted or top-dose-only effect, or another doubt; inactive means no such curve, though single readings can be large or run the other way;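 further: the enzyme is Sfp with the accession as filed and its product quenches rhodamine fluorescence; potency means the concentration at half of the fitted maximal effect; 0% = enzyme reaction without inhibitor and -100% = no enzyme wells; top concentration of the series not given in the record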
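Fluorescence-quenching assay: 15 nM Sfp-PPTase preincubated 15 min at room temperature with compound, then 5 uM rhodamine-CoA and 12.5 uM BHQ-2-labelled YbbR peptide added. Fluorescence (ex 525/em 598 nm) read at start and after 30 min; difference gives rate.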
PINK1 modulator: modulators of PINK1 expression | PINK1 immunofluorescence, high-content cytometry, 24 h | Potency, µM (highest dose often 76.6 µM), for the others: at the top dose activation (PINK1 increase), hits mostly activators | 410,000 tested, 0.2% active | AID 624263; active = well fitted activation curve with a large enough effect; inconclusive = small, poorly fitted or top-dose-only effect; inactive = flat fitted curve, though single readings scatter; cell line not stated here;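 further: potency means the concentration at half of the fitted maximal effect; % of control where 0% means no effect; nearly all actives have a fitted effect of over 65% in size; a mitochondrial uncoupler was the plate control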
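PINK1 protein, normally rapidly degraded, was detected by immunofluorescence after 24 hour compound treatment of a stable cell line. Titration data (5 concentrations) came from laser-scanning cytometry, with CCCP-treated wells as controls.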
Menin-MLL FL inh: inhibitors of human menin-MLL interaction, wild-type MLL peptide; Fluorescence polarization, fluorescein-MLL peptide displacement from menin; FP activity change, % at 61.4 µM; 290,000 tested, under 10 active; AID 1766; inconclusive = falling polarisation curve, or a change in total fluorescence; inactive = total fluorescence flat and polarisation flat or rising; no compound was filed as active; the % refers to the polarisation; negative = inhibition;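 further: % of control where 0% means no effect; inhibitors lower the polarisation; unlabelled MLL peptide was the positive control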
ClpP mod: qHTS Assay for Activators of ClpP; ATP-dependent Clp protease proteolytic subunit (Bacillus subtilis (strain 168)), P80244; purified B. subtilis ClpP, FRET peptide cleavage, 20 min; Potency, µM (doses to about 57.5 µM), for the others: at the top dose activity change, negative = active; 340,000 tested, 1.9% active; AID 651965, 2013; active = well fitted falling curve with a large enough effect; inconclusive = small, poorly fitted or top-dose-only effect; inactive = no such curve, though single readings can be large or run the other way; further: potency means the concentration at half of the fitted maximal effect; the source files actives as falling curves though it sought activators and does not explain the sign; nearly all actives have a fitted effect of over 65% in size; many hits overshoot -100%
Target sequence (P80244 whole entry, looked up): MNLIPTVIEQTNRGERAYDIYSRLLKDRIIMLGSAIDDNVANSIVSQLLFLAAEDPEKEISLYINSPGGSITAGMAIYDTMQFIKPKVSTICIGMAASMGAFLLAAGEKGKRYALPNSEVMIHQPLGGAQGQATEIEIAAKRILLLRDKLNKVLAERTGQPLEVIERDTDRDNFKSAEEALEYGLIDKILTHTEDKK
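ClpP 10 microg/mL final, pH 8 Tris/KCl buffer with BSA, glycerol, Tween-20; compound pinned in; FRET-FV substrate; RT 20 min; Ex320/Em430; ΔFRET vs ADEP 5.8 microM, DMSO, no enzyme.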
TRPV1 potentiator: human TRPV1 potentiation. Q8NER1. TRPV1-expressing cells, Fluo-8 calcium influx, capsaicin EC20 potentiation; host cell line not named in the record; control for the full effect not named in the record. potentiation, % at 8.33 µM. 320,000 tested, 0.02% active. AID 540277; active means potentiation above 80%; inconclusive means 30% to 80%; inactive means below 30%; further: 0% is about no effect
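Cells expressing TRPV1 were dye-loaded with Fluo-8 and read kinetically: 10 s baseline, 3 min after compound (agonist portion), then 2 min after EC20 capsaicin (allosteric enhancer portion). Calcium-bound dye fluorescence at 480/520 nm.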
* hit, by the source's call; ? = inconclusive; nt = no result given; & = joins results of further samples; [ ] = another dose, or the depositor's remark.

SMILES	TRPML1 agonist	TRPML1 inh	Sfp inh	PINK1 modulator	Menin-MLL FL inh	ClpP mod	TRPV1 potentiator
O=C(CN1C(=O)NC2(CCCCC2)C1=O)N1CCN(S(=O)(=O)c2ccccc2)CC1	0.1	-6.5	16.4%	-0.7%	-0.9	nt	-3.2
CCC1(C)Cc2c(sc3nnn(CC(=O)Nc4ccc(C)cc4)c(=O)c23)CO1 (configuration not stated)	2.4	8.8	16.8%	10µM*	-1.8	-1.9%	-1.8
Cc1ccc2c(CNCc3cccc(Cl)c3)c(C(=O)O)n(Cc3ccc(F)cc3Cl)c2c1	2.2	-3.1	nt	1.3%	nt	-3.6%	nt
OC[C@@H]1CN(Cc2cccs2)C[C@H](n2cnc3c(N4CCCC4)ncnc32)O1	0.0	nt	nt	-0.3%	nt	-2.7%	nt
COc1cccc(CNC(=O)c2ccc(NS(=O)(=O)c3ccc4[nH]c(=O)[nH]c4c3)cc2)c1	-1.0	-7.1	nt	0.4%	nt	0.1%	-1.8
Cc1cccc(NS(=O)(=O)c2nnc(NC(=O)c3cccc(C)c3)s2)c1	-0.5&-0.5	-5.8&1.5	31.5%[activator]	-0.5%&-0.9%	-1.5	2.6%&0.5%	19.0
COc1ccc(C(c2nnnn2Cc2ccccc2)N2CCN(C(=O)c3ccco3)CC2)cc1 (configuration not stated)	-0.3	-11.5	4.3%	-0.6%	0.3	0.6%	4.3
CC(=O)OC1COC(OC(C)=O)CO1 (configuration not stated)	-0.7	-14.2	nt	0.2%	nt	nt	nt
COc1cc(/C=C(\NC(C)=O)C(=O)NC(C)(C)CC(C)(C)C)ccc1OC(C)=O	-0.1	-5.2	2.1%	-1.5%	2.1	1.4%	21.5
C[C@@H]1CN([C@H](C)CO)C(=O)c2cc(Br)cnc2O[C@H]1CN(C)C(=O)c1ccccc1	0.5	-7.7	nt	0.8%	nt	1.2%	nt
CCOC(=O)C1=C(c2ccccc2)NC(=O)NC1c1ccc(O)c(OCC)c1 (configuration not stated)	0.9	11.5	10.2%	2.0%	-5.4	-2.5%	7.5
c1ccc(OCc2nn3c(Cn4cnc5ccccc54)nnc3s2)cc1	1.1	0.8	?	0.2%[38.3 µM]	8.1	-0.4%	3.9
COc1cc(C2NC(=O)c3c(sc4c3CCN(C)C4)N2)cc(Br)c1OC(=O)c1ccc(C)cc1 (configuration not stated)	3.5	-0.7	nt	0.9%	nt	4.4%	nt
COc1ccc(C2=Nc3ccccc3NC(=O)C2N(CCc2cc(OC)cc(OC)c2)C(C)=O)cc1 (configuration not stated)	-0.5	nt	nt	2.2%	nt	-2.3%	nt
CN(C)Cc1ccc(O)c(CCc2ccccc2)n1	-0.3	12.0	3.1%	0.2%	0.7	-9.9%	-2.8
COc1ccc(-n2c(SCC(=O)N(C)C3CCS(=O)(=O)C3)nc3ccc(O)cc3c2=O)cc1OC (configuration not stated)	-0.6	3.2	nt	0.1%	nt	nt	nt
Cc1nc(Br)c(Br)n1Cc1ccccc1	0.8	-7.3	nt	-1.5%	nt	0.0%	nt
O=C(/C=C/c1ccc(Cl)cc1Cl)n1cccn1	5.0	6.7	8.8%	1.7%	2.8	-1.5%	-13.0
CCOC(=O)CSc1c(-c2ccc(Cl)cc2)[nH]c2ccccc12	1.2	3.1	16.7%	?	0.8	-4.6%	-20.9
O=C(O)c1ccccc1C(=O)Nc1cccc([N+](=O)[O-])c1	-0.2	23.7	14.1%	0.4%	2.6	-1.2%	4.6
COCCNC(=O)c1ccc2c(c1)N(Cc1cccc(Cl)c1)C(=O)c1ccccc1S2(=O)=O	0.2	-7.5	nt	1.0%	nt	0.3%	nt
CC(=O)c1cccc(Nc2nc(N3CCOCC3)nc(N3CCOCC3)n2)c1	-0.4	-7.7	19.4%	-0.4%	nt	-0.4%	-4.6
CCCN(CCC)CCNC(=O)CS(=O)Cc1nc(-c2ccc(C)cc2)oc1C (configuration not stated)	0.3	3.1	11.8%	-2.1%	-2.3	-12.1%	-2.4
Cc1cc(N2CCN(c3cccc(C)c3C)CC2)nc(-c2ccccc2)n1	1.2	22.6	-12.3%	12.6%	3.1	?	-0.9
O=C(N/N=C/c1ccc(Cl)cc1Cl)c1ccc(-n2cnnn2)cc1	-1.2	-6.5	nt	3.4%	nt	-0.2%	-10.2
COc1ccc(OC)c(-c2cc(-c3cccnc3)nc(N)c2C#N)c1	2.5	32.4	13.0%	4.6%	2.9	nt	-11.2
CCCNC(=O)N1CCC(C(=O)c2cccc(F)c2)CC1	-0.9	9.5	12.9%	-0.8%	-1.0	1.0%	-37.1
c1ccc(CSc2ccc(-c3ccc4c(c3)OCO4)nn2)cc1	4.7	9.1	-8.7%	15.5%	1.4	-3.1%	0.9
CC(=O)Nc1ccc(NC(=O)CCc2ccc(C)o2)cc1	-0.8	9.9	7.0%	0.9%	nt	0.6%	5.4
COc1cccc(CNc2nc3cc(-c4cccc(C(=O)NCCO)c4)sc3c(=O)n2C)c1	-0.9	nt	nt	0.9%	nt	-26.0%	nt
CC1CCCN(C(=O)Cc2cn(Cc3cccc(Cl)c3)c3ccccc23)C1 (configuration not stated)	1.3	19.8	-27.0%	?	1.6	-6.3%	-5.0
C=CCN=C(NC#N)SC	0.5	-9.2	16.1%	-2.4%	1.0	-1.2%	-10.4
CCOCC(=O)N1CCc2ccccc21	-0.7	0.9	26.1%	1.7%	-1.0	-5.3%	?
COc1ccc(NC(=O)CSCc2cc(=O)c3cc(C)ccc3[nH]2)cc1	2.3	17.2	nt	1.7%	nt	-0.4%	nt
CCCC(=O)C1=C(O)C(C(=O)OC)C(C)(C)CC1=Nc1ccc(C)cc1 (configuration not stated)	1.0	9.6	6.4%	-1.1%	5.0	-2.1%	-21.1
CC(C)(C)NC(=O)c1ccc2c(c1)N(CC(=O)N1CCCCC1)C(=O)C(C)(C)O2	-1.5	3.7	1.5%	3.2%	1.3	1.1%	8.0
O=C(CCC1CCCN(c2ncccn2)C1)N1CCN(c2ccccn2)CC1 (configuration not stated)	0.7	1.1	10.1%	0.9%	-1.2	-20.2%	-49.6
COC(=O)c1c(NC(=O)CCc2ccc(C)o2)sc(C)c1C	2.2	-5.0	20µM*	6.0%	5.3	-5.6%	5.9
COc1cccc(-c2nc(CS(=O)CC(=O)NC(C)CCc3ccccc3)c(C)o2)c1 (configuration not stated)	0.0	-13.8	-0.7%	1.1%	nt	-21.0%	-0.1
Cc1ccc(OC(=O)COc2ccccc2C)cc1	2.6	26.5	4.9%	1.4%	-1.5	nt	0.3
CC[C@@H](C)[C@@H]1CN([C@@H](C)CN2CCC[C@H]2CN2C(N)=NC[C@@H]2Cc2ccccc2)C(=N)N1CCc1ccc(Cl)c(Cl)c1	-0.4	-5.2	nt	1.0%	nt	-0.8%	nt
COc1ccc(Cl)cc1NCc1nnc2n1CCCCC2	0.7	6.8	nt	-5.6%	nt	0.0%	nt
Cc1cc(NC(=O)CSc2nnc3ccc(-c4ccccc4)nn23)no1	0.1	-7.0	nt	-0.2%	nt	-15.2%	nt
CCOCCCn1c(SCC(=O)N(C)C2CCS(=O)(=O)C2)nc2ccccc2c1=O (configuration not stated)	-0.7	4.2	nt	0.7%	nt	nt	-0.9
CC12CCC(=O)N1C(C(=O)Nc1nccs1)CS2 (configuration not stated)	0.6	33.6	nt	1.5%	nt	nt	17.9
COC(=O)c1ccccc1NC(=O)C1CC(=O)N(c2ccc(OC)cc2)C1 (configuration not stated)	-0.5	2.5	-2.4%	2.4%	0.3	nt	3.6
COc1ccccc1C1NC(c2ccc3c(c2)OCO3)=CC(c2cc(Cl)ccc2O)N1 (configuration not stated)	0.1	nt	nt	6.8%	nt	-16.1%	nt
Cc1ccc(SCC(=O)N2CCN(S(=O)(=O)c3cccs3)CC2)cc1	-0.1	-12.0	nt	-0.3%	nt	1.1%	nt
COc1ccc(NC(=O)c2c(C)nn(Cc3ccccc3)c2Cl)cc1S(=O)(=O)N1CCOCC1	1.7	-2.0	9.5%	2.4%	5.0	-1.3%	-15.2
S=C(NC1CC1)N1CCN(C(=S)NC2CC2)CC1	0.0	20.2	11.9%	2.6%	nt	1.2%	-1.3
CCOC(=O)c1ccc(NC(=O)CSc2nc3c([nH]c4ccccc43)c(=O)n2C)cc1	0.1	-0.7	nt	6.0%	nt	-5.0%	nt
CCc1c(C(=O)Nc2cc(C)ccc2OC)[nH]c(C)c1C(C)=O	1.5	6.0	5.5%	9.7%	-4.3	16.4%	-11.9
O=C(Cc1ccccc1)N/N=C/c1cc(Br)cs1	0.2	20.8	14.2%	5.6%	-1.9	0.8%	11.8
COc1cc(NC(=O)c2cc3c(C)nc4ccccc4c3o2)cc(OC)c1OC	0.6	33.7	-1.7%	6.0%	-1.7	0.3%	4.2
O=C(NCCN1C(=O)S/C(=C\c2ccc(Cl)cc2)C1=O)C1=COCCO1	-0.2	1.7	nt	3.0%	nt	2.4%	nt
C[C@@H]1CN([C@H](C)CO)C(=O)CCCn2nncc2CO[C@H]1CN(C)C(=O)Nc1ccc(N2CCCCC2)cc1	1.5	-1.3	nt	-1.8%	nt	-1.7%	nt
CCc1ccc(-c2nc(CS(=O)CC(=O)NCCc3ccc(Cl)cc3)c(C)o2)cc1 (configuration not stated)	-0.8	-0.5	nt	2.5%	nt	-1.9%	nt
COc1ccc(NC(=O)NC2CCCc3ccccc32)cc1 (configuration not stated)	0.2	-2.3	20.2%	4.1%	4.3	0.7%	-4.7
CCOc1ccc(N2C(=O)c3cccnc3C2Nc2ccc(F)cc2)cc1 (configuration not stated)	-0.1	-1.9	-17.8%	3.2%[38.3 µM]	10.7	-2.1%	-1.4
Cc1cccc(C(=O)N2[C@@H](C(C)C)COc3cc(Br)ccc3S2(=O)=O)c1	-0.7	5.1	nt	?	nt	-1.8%	nt
O=C(CSc1nnc(CNc2ccc(F)cc2)n1Cc1ccco1)NC1CC1	-0.5	2.4	56.2µM*	1.1%	1.3	1.0%	9.6
COc1ccc(CNC(=O)CN(Cc2ccc(OC)cc2)C(=O)CCC(=O)Nc2nccs2)cc1	1.0	46.6	1.2%	-2.6%	nt	nt	12.2
NS(=O)(=O)c1ccc(Nc2nc(-c3ccc(O)cc3O)cs2)cc1	-0.9	-12.9	-10.7%	1.5%	-2.3	-1.3%	-1.2

Compound activity: PubChem BioAssay, National Center for Advancing Translational Sciences (NCATS)
